Source: PubChem BioAssay (several laboratories)
HNF4A DNA FP: change in binding of human HNF4A to DNA, primary screen, biochemical, fluorescence polarization, FITC-DNA; activity change, % at 10 µM; hit rate 0.3% among 360,000; 1 h; in the data active = activity change above about 30%, passing the limit was not always enough;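 also: controls were the assay level and a saturating level of protein; the project sought stronger binding though the title names inhibitors; some compounds called inactive have numbers as strong as hits; positive values seem to mean higher polarization but the record does not say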
Target sequence (P41235 whole entry, looked up): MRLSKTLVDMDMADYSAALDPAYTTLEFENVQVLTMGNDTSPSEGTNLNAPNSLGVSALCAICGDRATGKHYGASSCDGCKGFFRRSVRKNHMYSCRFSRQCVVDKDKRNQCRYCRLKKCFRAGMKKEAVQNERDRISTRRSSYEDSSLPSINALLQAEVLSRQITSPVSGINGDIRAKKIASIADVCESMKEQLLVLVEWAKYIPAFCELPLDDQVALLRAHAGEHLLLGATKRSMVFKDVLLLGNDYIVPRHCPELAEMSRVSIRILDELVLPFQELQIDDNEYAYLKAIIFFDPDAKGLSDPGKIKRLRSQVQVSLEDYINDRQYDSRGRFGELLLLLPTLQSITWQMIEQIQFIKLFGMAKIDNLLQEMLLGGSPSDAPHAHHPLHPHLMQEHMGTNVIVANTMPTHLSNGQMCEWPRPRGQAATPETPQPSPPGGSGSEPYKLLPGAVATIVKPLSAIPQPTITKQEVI
Vif A3G: inhibitors of Vif binding to APOBEC3G peptide, primary screen, biochemical, TR-FRET, GST-Vif 1-94, biotin-A3G peptide, dose response retest (AID 1117319); hit rate 0.57% among 260,000; TR-FRET GST-Vif / biotin-A3G peptide binding; higher % means a stronger effect; test concentration not given here; strong numbers were not always called active; Virion infectivity factor (Human immunodeficiency virus type 1 group M subtype B (isolate …; inhibition, %, or IC50 in µM where a hit was titrated;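 active = above the screen mean plus three standard deviations and confirmed in dose response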;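 also: Vif residues 1-94 fused to GST binding biotinylated APOBEC3G peptide 110-148; 0% = full assay without inhibitor and 100% = GST in place of GST-Vif; retest series ran down from 100 µM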
Active calls of the source: *.

How did CC1C(=O)N(Cc2cn(CCC3OCCO3)nn2)CCS(=O)(=O)N1Cc1ccc(-c2ccc(Cl)cc2)cc1 (stereo unspecified) do in these assays?
HNF4A DNA FP: 2.6; Vif A3G: 4.6%

Results for Cc1cc(C(=O)N2CCCC(N3CCN(c4ccccc4C)CC3)C2)no1 (stereo unspecified) ?
HNF4A DNA FP: -2.0; Vif A3G: -0.5%

Results for CC(C)NC(=O)Nc1ccc2c(c1)C(=O)N([C@H](C)CO)C[C@H](C)[C@@H](CN(C)Cc1ccc(C(F)(F)F)cc1)OCCCC[C@H](C)O2 ?
HNF4A DNA FP: -2.7; Vif A3G: -7.2%

What do the screens show for `CCN(CC)C(=O)c1nc(-c2cccc3ccccc23)no1`?
HNF4A DNA FP: -2.9; Vif A3G: 3.5%

How did Cc1cccc(OCC(=O)N2CCc3ccccc3C2)c1C do in these assays?
HNF4A DNA FP: -0.6; Vif A3G: 2.7%

How did CCN(c1ccccc1)S(=O)(=O)c1ccc(Cl)c(C(=O)Nc2ccncc2)c1 do in these assays?
HNF4A DNA FP: -0.4; Vif A3G: 0.1%

What do the screens show for `Cc1ccccc1C(=O)OCC(=O)Nc1cccc(S(=O)(=O)N2CCCCC2)c1`?
HNF4A DNA FP: 4.6; Vif A3G: 1.7%

What do the screens show for `COc1ccc(S(=O)(=O)N2CCOCC2)cc1NC(=O)CCCSc1ccccc1`?
HNF4A DNA FP: 0.8; Vif A3G: -4.3%

Results for O=C(COC(=O)C1COc2ccccc2O1)c1ccc(F)cc1 (stereo unspecified) ?
HNF4A DNA FP: 0.3; Vif A3G: 1.3%

Results for C[C@@H]1CNC(=O)c2c(C(=O)N[C@H](C)c3ccccc3)ncn21 ?
HNF4A DNA FP: 1.4; Vif A3G: -0.4%

How did Cc1nn(CC(C)C)c(Cl)c1C(=O)NCC1CCCO1 (stereo unspecified) do in these assays?
HNF4A DNA FP: -4.0; Vif A3G: 6.2%

How did Cc1nnc(NC(=O)CCN2C(=O)C3CC=CCC3C2=O)s1 (stereo unspecified) do in these assays?
HNF4A DNA FP: 2.5; Vif A3G: -1.6%

What do the screens show for `O=C1NC(Cc2ccc(O)cc2)c2nc3cc(Cl)ccc3c(=O)n2-c2cc3ccccc3cc21` (stereo unspecified)?
HNF4A DNA FP: 2.5; Vif A3G: -1.6%

How did CC(C)(C)Cc1c(-c2ccccc2)nc2ccc(Br)cn12 do in these assays?
HNF4A DNA FP: -4.5; Vif A3G: 1.0%

What do the screens show for `CN(N=Cc1ccc([N+](=O)[O-])cc1)c1ccccn1`?
HNF4A DNA FP: 2.5; Vif A3G: -2.7%

What do the screens show for `COC(=O)c1ccc(CNC(=O)c2cc(S(=O)(=O)NCc3ccccc3)ccc2C)cc1`?
HNF4A DNA FP: 0.0; Vif A3G: -1.3%

How did C[C@H](CO)N1C[C@H](C)[C@@H](CN(C)C(=O)C2CCCCC2)OCc2cnnn2CCCC1=O do in these assays?
HNF4A DNA FP: 1.3; Vif A3G: -2.4%

How did Cc1ccc(NC(=O)CCNC(=O)N2CC(=O)Nc3ccccc32)cc1Cl do in these assays?
HNF4A DNA FP: -0.2; Vif A3G: 6.7%

How did COc1ccc(OC)c(C(=O)NC2CCCc3c2cnn3-c2cc(C)cc(C)c2)c1 (stereo unspecified) do in these assays?
HNF4A DNA FP: -4.7; Vif A3G: -1.4%

Results for C[C@@H]1CN([C@H](C)CO)C(=O)CCCn2nncc2CO[C@H]1CN(C)S(=O)(=O)c1cccc(C#N)c1 ?
HNF4A DNA FP: -1.8; Vif A3G: -13.9%

How did C[C@@H]1CN([C@@H](C)CO)C(=O)c2cc(Br)cnc2O[C@H]1CN(C)Cc1cccc(C(=O)O)c1 do in these assays?
HNF4A DNA FP: -2.4; Vif A3G: 8.0%

Results for CC(C)C1C(=O)N(Cc2cn(Cc3ccco3)nn2)CCS(=O)(=O)N1Cc1ccc(-c2ccncc2)cc1 (stereo unspecified) ?
HNF4A DNA FP: 1.4; Vif A3G: 8.0%

Results for CNC(=O)C[C@H]1C(=O)N(CCc2ccccc2)C[C@@H]1c1ccc(OC)cc1 ?
HNF4A DNA FP: -0.4; Vif A3G: -1.1%

What do the screens show for `COc1ccc(C(=O)OCC(=O)N2CCN(C(=O)c3ccco3)CC2)c(OC)c1OC`?
HNF4A DNA FP: 4.6; Vif A3G: -2.8%

Results for O=C1NC(Cc2ccccc2)c2nc3ccccc3c(=O)n2-c2cc3ccccc3cc21 (stereo unspecified) ?
HNF4A DNA FP: -0.3; Vif A3G: 0.5%

What do the screens show for `Cn1nc(N)c2ncc(C(Cl)(Cl)Cl)nc21`?
HNF4A DNA FP: -0.1; Vif A3G: 3.5%

How did O=[N+]([O-])c1ccc(NCCCc2ccccc2)cc1 do in these assays?
HNF4A DNA FP: 0.0; Vif A3G: -6.0%

How did CC1=C(C(=O)N2CCOCC2)CC(CC(=O)NC(c2ccccc2)c2ccccc2)C(=O)N1Cc1ccc(F)cc1 (stereo unspecified) do in these assays?
HNF4A DNA FP: -1.5; Vif A3G: -2.5%

Results for COc1cccc(CN(C)CCCn2cnc3c(SC)ncnc32)c1 ?
HNF4A DNA FP: -2.9; Vif A3G: -3.3%

What do the screens show for `CCCC(CNC(C)=O)(C1=CCCCC1)c1ccccc1` (stereo unspecified)?
HNF4A DNA FP: 0.7; Vif A3G: -5.5%

How did C[C@@H]1CN([C@@H](C)CO)C(=O)CCCn2nncc2CO[C@@H]1CN(C)C(=O)OCc1ccccc1 do in these assays?
HNF4A DNA FP: 0.9; Vif A3G: -7.6%

What do the screens show for `O=C(c1ccc(CS(=O)Cc2ccccc2Cl)o1)N1CCN(c2ccccc2)CC1` (stereo unspecified)?
HNF4A DNA FP: 3.2; Vif A3G: -3.5%

What do the screens show for `O=C(COC(=O)c1cnccn1)NCc1ccccc1Cl`?
HNF4A DNA FP: 7.4; Vif A3G: 0.1%

How did COc1ccc(C(CNC(=O)CNC(=O)c2cccc(F)c2)N2CCOCC2)cc1 (stereo unspecified) do in these assays?
HNF4A DNA FP: 1.2; Vif A3G: 1.9%

What do the screens show for `Cc1noc(C)c1NC(=O)N(C)C[C@@H]1OCc2cnnn2CCCC(=O)N([C@H](C)CO)C[C@@H]1C`?
HNF4A DNA FP: 1.2; Vif A3G: -2.5%

What do the screens show for `C[C@H](O)[C@@H]1C(=O)N2CCc3c([nH]c4ccccc34)[C@@H]2C[C@@H]1N(C)C(=O)NC1CCCCC1`?
HNF4A DNA FP: -2.6; Vif A3G: -1.9%

What do the screens show for `Cc1csc(=O)n1CC(=O)OCC(=O)Nc1ccc(F)c(F)c1F`?
HNF4A DNA FP: -0.9; Vif A3G: -4.1%

What do the screens show for `COc1ccc(C(=O)Nc2cc(OC)c(NC(=O)Nc3ccccc3)cc2OC)cc1`?
HNF4A DNA FP: 0.8; Vif A3G: -0.7%

Results for CCCOc1ccc(C(=O)Nc2ccc(N3CCOCC3)cc2N2CCOCC2)cc1OCC ?
HNF4A DNA FP: -0.3; Vif A3G: 7.9%

Results for CSc1ncnc2c1ncn2CCCN1CCN(Cc2cccc3ccccc23)CC1 ?
HNF4A DNA FP: -2.4; Vif A3G: 0.7%

What do the screens show for `O=c1c2ccccc2sn1-c1ccccc1F`?
HNF4A DNA FP: 1.6; Vif A3G: 9.6%

Results for O=[N+]([O-])c1ccc(C=NN2CCOCC2)s1 ?
HNF4A DNA FP: 0.0; Vif A3G: -5.0%

How did Cc1csc(SCC(=O)Nc2cc(F)ccc2C)n1 do in these assays?
HNF4A DNA FP: -2.0; Vif A3G: 4.0%

How did Clc1nnc(NC2CCCCC2)c(Cl)c1Cl do in these assays?
HNF4A DNA FP: -0.4; Vif A3G: 0.4%

How did Cc1ccccc1NC(=O)Cc1nc(COC(=O)/C=C/c2ccc(F)cc2)cs1 do in these assays?
HNF4A DNA FP: -0.6; Vif A3G: -2.4%

What do the screens show for `COc1cccc(CNC(=O)COC(=O)c2ccc(-c3ccc(O)cc3)cc2)c1`?
HNF4A DNA FP: 0.8; Vif A3G: -0.6%

How did C[C@@H]1CN([C@@H](C)CO)C(=O)CCCn2cc(nn2)CO[C@H]1CN(C)S(=O)(=O)c1ccc(-c2ccccc2)cc1 do in these assays?
HNF4A DNA FP: -1.1; Vif A3G: -0.2%

Results for CCc1ccc([C@@H]2C[C@H]3[C@@H](CN2S(=O)(=O)c2ccc(C)cc2)C(=O)C[C@@H](c2ccc(Cl)cc2)N3S(=O)(=O)c2ccccc2C)cc1 ?
HNF4A DNA FP: 0.3; Vif A3G: -5.3%

What do the screens show for `COc1c(Cl)c(=O)oc2ccc(Cl)cc12`?
HNF4A DNA FP: -5.6; Vif A3G: 4.2%

Results for CCCCN(C(=O)c1cc(Cl)nc2ccccc12)c1c(N)n(CCC)c(=O)[nH]c1=O ?
HNF4A DNA FP: -3.3; Vif A3G: -5.9%

What do the screens show for `O=S1(=O)CCN(CCCCc2ccccc2)CC1`?
HNF4A DNA FP: 5.6; Vif A3G: -6.7%

What do the screens show for `Cn1c(=O)c2c(ncn2CC(=O)OCC(=O)NCc2ccc(F)cc2)n(C)c1=O`?
HNF4A DNA FP: 2.4; Vif A3G: -8.9%

How did COc1ccc(/C(N)=N/OC(=O)c2ccc3ccccc3c2)cc1OC do in these assays?
HNF4A DNA FP: -6.4; Vif A3G: -5.5%

What do the screens show for `Cc1cn([C@H]2C[C@H](O)[C@@H](CNCc3cnc(N4CCOCC4)nc3)O2)c(=O)[nH]c1=O`?
HNF4A DNA FP: 3.1; Vif A3G: 3.3%

What do the screens show for `O=C(NCCNC(=O)c1ccc(-c2cc(Cl)ccc2Cl)o1)c1cnccn1`?
HNF4A DNA FP: 0.3; Vif A3G: -7.1%

What do the screens show for `CSc1ncnc2c1ncn2CCCNCCCN1CCCC1=O`?
HNF4A DNA FP: -0.2; Vif A3G: 2.0%

Results for CC1=C(C(=O)N(C)C)CC(CC(=O)NCCN2CCOCC2)C(=O)N1CCC1=CCCCC1 (stereo unspecified) ?
HNF4A DNA FP: -1.6; Vif A3G: -1.3%

How did C[C@H](CO)N1C[C@H](C)[C@@H](CN(C)C(=O)Nc2ccc(F)cc2)Oc2cc(Br)ccc2S1(=O)=O do in these assays?
HNF4A DNA FP: -2.3; Vif A3G: 4.5%

How did COc1ccccc1N1CCN(S(=O)(=O)CCNC(=O)CCc2ccccc2)CC1 do in these assays?
HNF4A DNA FP: -3.8; Vif A3G: 4.0%

How did CCCCN1C(=O)C(CC(=O)NC(c2ccccc2)c2ccccc2)CC(C(=O)N(C)C)=C1C (stereo unspecified) do in these assays?
HNF4A DNA FP: -1.5; Vif A3G: 1.5%

Results for O=C(OCc1ccccc1)C1CCN(S(=O)(=O)c2cccs2)CC1 ?
HNF4A DNA FP: 2.5; Vif A3G: 3.8%

How did CNC[C@@H]1OCc2cnnn2CCCC(=O)N([C@H](C)CO)C[C@H]1C do in these assays?
HNF4A DNA FP: -2.6; Vif A3G: 1.9%

How did CC#CCOCC1CNC(=O)O1 (stereo unspecified) do in these assays?
HNF4A DNA FP: 1.3; Vif A3G: 8.4%

How did C[C@H](CO)N1C[C@H](C)[C@H](CN(C)S(=O)(=O)c2cccc(F)c2)Oc2cc(Br)ccc2S1(=O)=O do in these assays?
HNF4A DNA FP: -0.4; Vif A3G: -6.4%

How did CC1CN(C(=O)CSc2nc(N)c(NC(=O)c3ccc(C(F)(F)F)cc3)c(=O)[nH]2)CC(C)O1 (stereo unspecified) do in these assays?
HNF4A DNA FP: -2.0; Vif A3G: 0.3%

How did O=[N+]([O-])c1cccc(CON=Cc2ccccc2O)c1 do in these assays?
HNF4A DNA FP: -1.3; Vif A3G: 3.4%

What do the screens show for `Cc1nn(CC(C)C)c(Cl)c1C(=O)N(C)CC(=O)Nc1ccc(Cl)cc1`?
HNF4A DNA FP: -0.1; Vif A3G: -0.4%

How did Oc1ccc(CCc2ccccn2)cc1 do in these assays?
HNF4A DNA FP: 2.4; Vif A3G: -2.0%

How did CCc1nn(CCCC(=O)NC2CCCCC2C)c(=O)c2cc3occc3n12 (stereo unspecified) do in these assays?
HNF4A DNA FP: 0.1; Vif A3G: -9.6%

How did COc1ccc(S(=O)(=O)N(C)[C@H]2C[C@H]3c4cc(Oc5ccccc5C)ccc4CCN3C(=O)[C@H]2[C@H](C)O)cc1 do in these assays?
HNF4A DNA FP: -0.3; Vif A3G: 0.9%

How did COc1ccccc1S(=O)(=O)N(C)C[C@@H]1OCc2cn(nn2)CCCC(=O)N([C@@H](C)CO)C[C@H]1C do in these assays?
HNF4A DNA FP: 0.3; Vif A3G: -4.2%

Results for CC(=O)Nc1ccc(S(=O)(=O)NCCC(=O)NCc2ccco2)cc1 ?
HNF4A DNA FP: 1.8; Vif A3G: -0.7%

Sorted by SMILES length (smallest number first): 6 of the compounds above.
How did CC#CCOCC1CNC(=O)O1 (stereo unspecified) do in these assays?
HNF4A DNA FP: 1.3; Vif A3G: 8.4%

What do the screens show for `O=C(NCCNC(=O)c1ccc(-c2cc(Cl)ccc2Cl)o1)c1cnccn1`?
HNF4A DNA FP: 0.3; Vif A3G: -7.1%

What do the screens show for `COc1cccc(CNC(=O)COC(=O)c2ccc(-c3ccc(O)cc3)cc2)c1`?
HNF4A DNA FP: 0.8; Vif A3G: -0.6%

How did CCN(c1ccccc1)S(=O)(=O)c1ccc(Cl)c(C(=O)Nc2ccncc2)c1 do in these assays?
HNF4A DNA FP: -0.4; Vif A3G: 0.1%

What do the screens show for `O=C1NC(Cc2ccc(O)cc2)c2nc3cc(Cl)ccc3c(=O)n2-c2cc3ccccc3cc21` (stereo unspecified)?
HNF4A DNA FP: 2.5; Vif A3G: -1.6%

Results for CCc1ccc([C@@H]2C[C@H]3[C@@H](CN2S(=O)(=O)c2ccc(C)cc2)C(=O)C[C@@H](c2ccc(Cl)cc2)N3S(=O)(=O)c2ccccc2C)cc1 ?
HNF4A DNA FP: 0.3; Vif A3G: -5.3%

Not all compounds are listed, so the mix of outcomes need not match the whole.
